Calb FLC = affects C. albicans growth with fluconazole | growth inhibition, % (test concentration not listed) | C. albicans CaCi-2 (fluconazole-resistant clinical isolate) + fluconazole, Alamar Blue growth, 48 h | hit rate 0.57% among 300,000;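 active means most replicates above 75%; inconclusive means exactly half above 75%; inactive means most below 75%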;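 further: all wells also contain fluconazole at 8 µg/ml as a sub-toxic cotreatment; 0% = median of DMSO wells and 100% = median of geldanamycin control wells; wells of about 8 µL received 7.5 nL stock; the first replicate is given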
Beta cell apopt = beta cell apoptosis inhibition. hit rate 0.8% among 300,000. INS-1E cytokine-induced death, ATP luminescence, 48 h; percent of positive-control rescue, neutral wells zero. protection from apoptosis, % (concentration not given with the values);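 active means all replicates at 75% or more, or half of them and the mean; inconclusive means half reach 75% but not the mean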;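 further: 0% = cytokine-treated negative control wells and 100% = positive control rescue; higher means more ATP so stronger rescue from cytokine killing; wells of about 40 µL received 100 nL stock; the first replicate is given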
AF4-AF9 inh = blocks AF4 peptide binding to human AF9 | P42568 | AlphaScreen, biotin-AF4 peptide binding to FLAG-AF9 | inhibition, % at 10 µM | hit rate 0.47% among 350,000 | AID 651704;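 active means every replicate reaching a set inhibition limit, whatever the replicate mean, cut at about 25% in these data; inconclusive means mean inhibition reaches that limit but some replicates miss it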;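 further: 0% = plate neutral control median and 100% = total signal loss; the record names both 10 and 1 µM as test concentration; the first replicate is given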
Target sequence (P42568 whole entry, looked up): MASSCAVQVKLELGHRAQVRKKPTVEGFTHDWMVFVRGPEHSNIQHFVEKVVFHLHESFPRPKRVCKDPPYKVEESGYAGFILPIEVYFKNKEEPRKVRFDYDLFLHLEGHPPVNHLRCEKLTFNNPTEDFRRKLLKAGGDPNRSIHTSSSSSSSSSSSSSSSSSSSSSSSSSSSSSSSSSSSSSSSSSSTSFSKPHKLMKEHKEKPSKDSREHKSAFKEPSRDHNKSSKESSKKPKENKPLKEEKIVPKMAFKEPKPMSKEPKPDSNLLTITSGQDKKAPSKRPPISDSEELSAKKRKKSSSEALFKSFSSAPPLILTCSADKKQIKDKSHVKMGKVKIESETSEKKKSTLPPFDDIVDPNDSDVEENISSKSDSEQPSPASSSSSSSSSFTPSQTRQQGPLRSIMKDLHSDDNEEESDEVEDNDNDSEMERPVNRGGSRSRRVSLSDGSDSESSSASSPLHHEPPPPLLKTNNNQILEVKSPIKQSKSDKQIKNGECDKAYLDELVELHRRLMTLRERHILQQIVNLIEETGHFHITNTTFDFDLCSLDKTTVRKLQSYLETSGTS
T cruzi repl = blocks replication of Trypanosoma cruzi; T. cruzi beta-gal in NIH3T3, luminescence, 90 h; inhibition, % (test concentration not listed); hit rate 1.4% among 300,000;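 active means mean inhibition across valid replicates above about 55%, limit read from the data; inconclusive means mean below that limit but half or more replicates reach it; inactive means mean below it, under half of replicates reach it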;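 further: signal also drops with host cell toxicity which is not excluded here; 0% = plate median of DMSO wells and 100% = zero luminescence signal; higher percent means less beta-gal luminescence so fewer parasites; stock transfer was 50 nL into about 50 µL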
RanGTP-Impb inh = disruptors of Ran-importin-beta complex formation – biochemical, FRET, CFP-Ran, YFP-importin-beta, homogeneous, primary screen | cell-free CFP-Ran/YFP-importin-beta FRET ratio | inhibition, % (test concentration not listed) | hit rate 1.1% among 300,000 | AID 2216;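 active means most replicates above 15%; inconclusive means exactly half above 15%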;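 further: 0% = DMSO wells and 100% = Ran loaded with GDP instead of GTP; wells of about 40 µL received 100 nL stock; the first replicate is given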
ALR H2O2 inh = inhibitors of human sulfhydryl oxidase ALR | P55789 | inhibition, % (no concentration beside the values) | hit rate 3.8% among 290,000 | purified ALR, DTT oxidation, H2O2 HRP-luminol luminescence | AID 485317;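 active means mean and each replicate at 75% or more; inconclusive means only one of the two met; inactive means neither met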;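 further: stock transfer was 7.5 nL into about 7.5 µL; 0% = neutral wells and 100% = wells with inactivated enzyme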
Target sequence (P55789 whole entry, looked up): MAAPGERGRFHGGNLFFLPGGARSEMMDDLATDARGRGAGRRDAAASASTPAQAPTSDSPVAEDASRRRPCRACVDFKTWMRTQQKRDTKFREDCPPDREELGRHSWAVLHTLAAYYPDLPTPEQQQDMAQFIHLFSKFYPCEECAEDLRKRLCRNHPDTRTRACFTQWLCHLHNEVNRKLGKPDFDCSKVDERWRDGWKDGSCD
rRNA inh HTS = inhibits bacterial ribosomal RNA function over humanized ribosomes; E. coli WT GFP vs humanized-ribosome RFP mutants, fluorescence, 24 h; active compounds read low; DMSO median 0, no signal -100; GFP signal change (wild-type ribosome), % (concentration not given with the values); hit rate 1.6% among 350,000; AID 720706;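 active means significant combined selectivity score with lowered wild-type GFP, culture density cut under 30%, mutant RFP and density less affected; inactive means any of these conditions unmet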; further: one replicate is shown; some compounds called inactive have numbers as strong as hits
FGF22 binding = shifts melting point of recombinant human FGF22; hit rate 1.5% among 340,000; Q9HCT0; calls only at 9.99 µM; recombinant FGF22 thermal shift, SYPRO orange fluorescence; percent of sucrose octasulfate shift, DMSO zero; AID 651658;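 active means melting point raised past a set limit in the mean and every replicate; inconclusive means no clear call; three in four hits are not shown here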
Target sequence (Q9HCT0 whole entry, looked up): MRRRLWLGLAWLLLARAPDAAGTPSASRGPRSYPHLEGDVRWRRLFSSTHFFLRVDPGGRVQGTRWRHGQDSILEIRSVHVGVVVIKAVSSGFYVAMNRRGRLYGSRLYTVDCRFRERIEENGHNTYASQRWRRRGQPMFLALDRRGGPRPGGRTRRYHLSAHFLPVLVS
rRNA inh HTS OD600 = also measured in rRNA inh HTS; calls as there; OD600 change, %; measured here: OD600 growth;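 optical density of the mix in the first replicate; 0 = DMSO median and -100 = no signal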
rRNA inh HTS RFP = recorded beside rRNA inh HTS, whose call it bears; RFP signal change, %; measured here: RFP humanized mutant strains;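 first replicate; 0 = DMSO median and -100 = no signal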
* hit, by the source's call; i = inactive; ? = inconclusive; · = no result given. Not all compounds are listed (hit frequency here may not be typical).

SMILES	Calb FLC	Beta cell apopt	AF4-AF9 inh	T cruzi repl	RanGTP-Impb inh	ALR H2O2 inh	rRNA inh HTS	rRNA inh HTS OD600	rRNA inh HTS RFP	FGF22 binding
c1cc2ccc3ccc(CN4CCOCC4)c4ccc(c1)c2c34	8.7	6.3	·	3.4	45.1*	-21.9	·	·	·	·
O=c1oc2ccccc2c(NCCc2ccccc2)c1[N+](=O)[O-]	-6.4	-5.0	·	-1.1	-0.5	-2.2	·	·	·	·
CCCCNC(=O)Nc1cnn(CC)c1C(N)=O	4.7	-6.2	·	-9.1	2.9	0.8	·	·	·	·
O=C(O)CCCC(=O)N1CCN(c2nc(-c3ccccc3Cl)c3cc(Br)ccc3n2)CC1	55.7	0.7	2.7	7.5	35.4*	-7.7	-16.6	-19.6	-1.8	i
O=S(=O)(c1ccccc1)N1CCCC1c1cccs1 (centres undefined)	-11.0	·	-1.9	1.2	-3.0	·	-9.2	-0.2	5.9	i
Cc1cccc(OCC(=O)N/N=C/c2sc(=O)n(Cc3cccc(C(=O)O)c3)c2Cl)c1	2.0	-1.2	-6.4	-8.3	5.3	14.8	-17.2	-18.6	-0.2	i
O=C(COc1coc(CN2CCN(c3ccccc3F)CC2)cc1=O)NCC1CCCO1 (centres undefined)	-2.1	·	-0.4	-7.8	-3.3	-0.1	12.2	11.3	1.8	i
Cn1c(-c2ccc(C(C)(C)C)cc2)n[nH]c1=S	2.1	-16.7	·	1.1	-2.4	10.4	·	·	·	·
Cn1c(=O)oc2cc(S(=O)(=O)Nc3cccc(C(=O)O)c3)ccc21	5.8	-7.8	·	0.0	·	-7.5	·	·	·	·
COC(=O)N/N=C\c1cc(Br)ccc1OCc1ccccc1	?	7.9	·	17.2	1.6	·	·	·	·	·
CCOC(=O)CSc1ccc(-c2nc3cc(C)c(C)cc3[nH]2)cn1	0.6	0.6	·	3.9	4.6	55.2	·	·	·	·
C/C(CC(=O)NCCc1ccccc1)=N\NC(=O)COc1ccc(Br)cc1	-29.3	-1.6	0.1	-1.8	2.4	0.2	-5.5	-6.7	2.4	i
CC1=C(C(=O)OC2CCCCC2)C(c2ccco2)n2ncnc2N1 (centres undefined)	2.8	-3.1	-11.4	27.2	6.0	·	-8.6	-27.0	-4.6	i
Cn1ncc(Br)c1C(=O)NC(=S)N1CCN(c2ccccn2)CC1	-13.9	4.2	·	-1.1	-3.7	4.6	·	·	·	·
Cc1ccc(C)c(N(C(=O)Cn2nnc(-c3cccs3)n2)C(C(=O)NC2CC2)c2ccc(C)o2)c1 (centres undefined)	-9.5	-5.2	·	35.5	-2.1	-2.4	·	·	·	·
Cc1cc(OCc2nc(-c3ccncc3)no2)cc(C)c1Cl	-0.6	-4.6	-2.6	28.0	0.5	-1.9	-2.1	-7.7	-2.2	i
C=CCNc1nc(N)c(C(=C(C#N)C#N)c2ccccc2)s1	-9.5	14.8	·	12.6	10.2	60.6	·	·	·	·
O=C(CN1C(=O)c2ccccc2C1=O)NCc1ccc(F)cc1	-0.1	·	-0.3	-4.8	-4.1	·	7.1	7.0	1.0	i
CN(C)c1nc(Oc2ccc(/C=N/O)cc2)nc(N(C)C)n1	-6.1	0.2	·	-12.8	-0.8	98.8*	·	·	·	·
C=C[C@@]1(C)CC(=O)[C@]2(O)[C@@]3(C)[C@@H](O)CCC(C)(C)[C@@H]3[C@H](O)[C@H](OC(C)=O)[C@@]2(C)O1	·	-8.1	-4.2	-21.8	-4.2	4.0	7.7	-1.9	-0.9	i
CCOC(=O)c1c(O)cc(C)[nH]c1=O	-0.5	-0.6	-9.2	-11.4	4.9	·	4.5	-0.2	-3.8	i
CCC(=O)Nc1nc(-c2ccccc2)ns1	-9.6	-4.6	·	-8.6	0.4	-4.9	·	·	·	·
CC1(C)S[C@@H]2[C@H](NC(=O)[C@H](N)c3ccc(O)cc3)C(=O)N2[C@H]1C(=O)O	·	0.2	-1.8	-8.9	5.1	·	·	·	·	i
CC(C)(C)c1ccc(C(=O)NCc2nnc(SCC(=O)NC3CCCCC3)o2)cc1	-8.5	-4.1	-0.7	1.9	1.0	44.1	·	·	·	i
Cc1ccccc1N=Nc1c(C)[nH]n(C(N)=S)c1=O	27.0	27.9	3.0	-4.0	-0.7	-8.7	2.9	5.5	-0.1	i

As a short view, part of the list above:
SMILES	Calb FLC	Beta cell apopt	AF4-AF9 inh	T cruzi repl	RanGTP-Impb inh	ALR H2O2 inh	rRNA inh HTS	rRNA inh HTS OD600	rRNA inh HTS RFP	FGF22 binding
C=CCNc1nc(N)c(C(=C(C#N)C#N)c2ccccc2)s1	-9.5	14.8	·	12.6	10.2	60.6	·	·	·	·
O=C(CN1C(=O)c2ccccc2C1=O)NCc1ccc(F)cc1	-0.1	·	-0.3	-4.8	-4.1	·	7.1	7.0	1.0	i
CN(C)c1nc(Oc2ccc(/C=N/O)cc2)nc(N(C)C)n1	-6.1	0.2	·	-12.8	-0.8	98.8*	·	·	·	·
C=C[C@@]1(C)CC(=O)[C@]2(O)[C@@]3(C)[C@@H](O)CCC(C)(C)[C@@H]3[C@H](O)[C@H](OC(C)=O)[C@@]2(C)O1	·	-8.1	-4.2	-21.8	-4.2	4.0	7.7	-1.9	-0.9	i
CCOC(=O)c1c(O)cc(C)[nH]c1=O	-0.5	-0.6	-9.2	-11.4	4.9	·	4.5	-0.2	-3.8	i

Next section
SMILES	Calb FLC	Beta cell apopt	AF4-AF9 inh	T cruzi repl	RanGTP-Impb inh	ALR H2O2 inh	rRNA inh HTS	rRNA inh HTS OD600	rRNA inh HTS RFP	FGF22 binding
CCCCN(C(=O)c1ccc(N(C)S(=O)(=O)c2ccc(C)cc2)cc1)c1c(N)n(CCCC)c(=O)[nH]c1=O	-6.0	-2.5	0.6	1.0	-1.6	·	10.3	2.6	1.5	i
COC(=O)c1sc(NC(=O)c2csc3c2CCCC3)nc1C	0.0	10.7	·	3.1	-0.9	-9.7	·	·	·	·
O=C(c1ccc(F)cc1F)N1CCCN(c2nc(-c3ccccc3)ns2)CC1	14.1	-3.4	-5.7	-4.9	2.4	-1.9	-28.7	-25.9	-1.5	i
O=C(O)CN1CCN(Cc2ccccc2)C1=O	-8.7	-3.0	·	-16.6	1.9	-4.3	·	·	·	·
COc1ccc(C(=O)N[C@H](C(=O)OCc2cc(=O)oc3cc(C)ccc23)C(C)C)cc1	2.8	4.5	·	11.6	0.3	-1.3	·	·	·	·
CCOc1ccccc1OCCCC(=O)NNC(=O)c1nn(C)c(=O)c2ccccc12	·	-5.3	-0.1	·	·	-1.6	-6.5	-13.7	2.0	i
CCOC(=O)C(NC(=O)CC(C)C)(Nc1cc(C)on1)C(F)(F)F (centres undefined)	-16.2	-7.1	·	-16.6	0.5	-26.4	·	·	·	·
Cc1ccc(/C=C/C(=O)NCCCc2ccccc2)cc1	-14.9	0.0	·	-5.2	1.0	-5.8	·	·	·	·
N=C1c2ccccc2CN1c1ccc(N2CCOCC2)c(S(=O)(=O)Nc2ccc(Cl)cc2)c1	-8.2	9.8	11.7	-0.7	2.2	1.1	-5.2	-15.9	4.6	i
COc1cc(OC)cc(C(=O)Nc2cccc(-c3ccc(N4CCOCC4)nn3)c2)c1	0.2	9.4	-11.5	-1.1	-2.6	·	-3.4	-2.2	1.5	i
CCc1nnc(NS(=O)(=O)c2ccc(NC(=O)/C=C/c3ccc(OC)cc3OC)cc2)s1	5.8	4.2	-0.3	10.8	-2.6	12.9	-16.4	-8.3	-3.7	i
COc1ccc(C(=O)N2CCN(S(=O)(=O)c3ccc4c(c3)OCCO4)CC2)cc1OC	·	-7.0	-0.7	·	·	·	4.6	6.5	0.0	i
Cc1cccc(-n2c(Cc3ccccc3)nnc2SCc2ccc([N+](=O)[O-])cc2)c1	6.9	-20.5	·	26.6	-4.3	-48.0	·	·	·	·
O=C(NN1C(=O)c2ccccc2NC1c1ccccn1)c1ccc(Br)cc1 (centres undefined)	-1.8	-0.3	·	-3.0	2.5	0.3	·	·	·	·
O=C1Nc2ccccc2O/C1=C\c1c(F)cccc1Cl	-2.1	2.4	-1.8	8.6	3.0	-1.6	-5.9	10.6	0.2	i
O=C1CN(C(=O)COC(=O)C2CCN(S(=O)(=O)c3ccccc3C(F)(F)F)CC2)c2ccccc2N1	-5.7	6.6	·	27.2	?	1.8	·	·	·	·
COc1cc(OC)cc(N2CC(C)(C)C2=O)c1	-1.1	·	0.4	-4.4	-3.1	-7.6	0.4	-5.7	-2.0	i
COC(=O)c1cc(S(=O)(=O)N2CCN(c3cccc(OC)c3)CC2)cn1C	0.8	-0.4	0.1	3.9	-0.4	-2.2	4.5	10.2	-1.9	i
CCOc1ccc(NC(=O)COC(=O)c2ccc3c(c2)OCO3)cc1	·	0.5	-3.8	·	·	-6.8	4.8	14.4	-1.4	i
COc1cc(/C=C/C(=O)OCC(=O)NNC(=O)c2cc(Cl)ccc2OC)ccc1O	·	2.2	5.3	·	·	19.0	-0.5	-9.3	-0.1	i
CC1CCc2c(sc3ncnc(SCC(=O)N(C)C4CCS(=O)(=O)C4)c23)C1 (centres undefined)	·	-2.0	5.5	·	·	6.1	-5.4	0.7	3.2	i
Cn1c(=O)c2c(SCC(N)=O)nc(CC(C)(C)C)nc2n(C)c1=O	-12.8	2.4	-44.4	12.5	-1.4	-10.8	·	·	·	i
Cc1cnc(C(=O)OCC(=O)N2CCc3ccccc3C2)cn1	-6.4	-0.7	·	-8.3	-4.4	-11.9	·	·	·	·
Cc1ccccc1OCc1nnc(SCC(=O)O)n1Cc1ccccc1	-0.2	·	0.5	-1.1	?	-7.0	-16.2	-17.5	-5.1	i
Nc1cc(=O)[nH]c(=S)n1-c1ccccc1	-15.7	-2.2	·	-11.0	-1.4	-5.2	·	·	·	·
COc1ccc(-n2c(=O)c3ccccc3n(CC(=O)Nc3cc(C)on3)c2=O)cc1OC	-7.4	-4.2	·	-14.8	1.1	1.2	·	·	·	·
COc1ccc(C(=O)N2CCC(N3CCN(c4ccccc4)CC3)CC2)cc1OC	3.7	1.6	·	-6.4	-1.9	58.9	·	·	·	·
CCCC(=O)N1CCc2cc(-c3nc(N)sc3C)ccc21	0.1	-1.6	·	5.8	9.1	98.2*	·	·	·	·
CCOc1ccc(S(=O)(=O)N2CCC(C(=O)NCc3ccccn3)CC2)cc1	-8.9	-1.0	0.6	-14.9	2.3	2.6	-0.6	-1.6	-1.0	i
CCOC(=O)CN1NC2(CCC(C)CC2)NC1=S (centres undefined)	-3.2	-4.4	·	-7.5	0.3	-4.5	·	·	·	·

2 records drawn at random from the list so far:
SMILES	Calb FLC	Beta cell apopt	AF4-AF9 inh	T cruzi repl	RanGTP-Impb inh	ALR H2O2 inh	rRNA inh HTS	rRNA inh HTS OD600	rRNA inh HTS RFP	FGF22 binding
CCc1nnc(NS(=O)(=O)c2ccc(NC(=O)/C=C/c3ccc(OC)cc3OC)cc2)s1	5.8	4.2	-0.3	10.8	-2.6	12.9	-16.4	-8.3	-3.7	i
CC1(C)S[C@@H]2[C@H](NC(=O)[C@H](N)c3ccc(O)cc3)C(=O)N2[C@H]1C(=O)O	·	0.2	-1.8	-8.9	5.1	·	·	·	·	i

From PubChem BioAssay
